MenB inh = M. tuberculosis MenB inhibitors, primary screen, biochemical, absorbance; 1,4-dihydroxy-2-naphthoyl-CoA synthase (Mycobacterium tuberculosis (strain ATCC 25618 / …; MenB enzyme assay, absorbance read-out; some hits fall short of the stated cut; inhibition, %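 (about 12 µg/mL by stock and volumes)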; actives 0.43% (n = 100,000);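 active means mean of two replicates above 30%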;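 further: 0% = no compound and 100% = wells with inactive enzyme; the first replicate is given; strong numbers were not always called active; inactives centre near -10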
Target sequence (P9WNP5 whole entry, looked up): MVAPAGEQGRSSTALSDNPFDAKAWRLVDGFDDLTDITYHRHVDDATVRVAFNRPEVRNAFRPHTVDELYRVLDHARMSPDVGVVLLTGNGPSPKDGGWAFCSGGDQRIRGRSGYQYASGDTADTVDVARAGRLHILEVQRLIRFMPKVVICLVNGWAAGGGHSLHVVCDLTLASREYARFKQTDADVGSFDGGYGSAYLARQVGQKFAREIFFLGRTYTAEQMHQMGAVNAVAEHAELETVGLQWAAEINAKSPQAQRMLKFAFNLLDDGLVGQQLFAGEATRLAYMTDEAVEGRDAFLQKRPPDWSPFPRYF
MbtI inh = MbtI salicylate synthase inhibitors, primary screen, biochemical, fluorescence intensity; purified MbtI enzyme, fluorescence intensity read-out; inhibition, %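 (about 17 µg/mL by stock and volumes)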; actives 0.89% (n = 100,000); AID 493033, 2011;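 active means above 50% in both replicates, above 80% if mildly self-fluorescent; inactive means the rest, strongly fluorescent compounds included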;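 further: 0% = mean of negative and 100% = mean of positive controls; one replicate is shown; some compounds called inactive have numbers as strong as hits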
Target sequence (P9WFX0 whole entry, looked up): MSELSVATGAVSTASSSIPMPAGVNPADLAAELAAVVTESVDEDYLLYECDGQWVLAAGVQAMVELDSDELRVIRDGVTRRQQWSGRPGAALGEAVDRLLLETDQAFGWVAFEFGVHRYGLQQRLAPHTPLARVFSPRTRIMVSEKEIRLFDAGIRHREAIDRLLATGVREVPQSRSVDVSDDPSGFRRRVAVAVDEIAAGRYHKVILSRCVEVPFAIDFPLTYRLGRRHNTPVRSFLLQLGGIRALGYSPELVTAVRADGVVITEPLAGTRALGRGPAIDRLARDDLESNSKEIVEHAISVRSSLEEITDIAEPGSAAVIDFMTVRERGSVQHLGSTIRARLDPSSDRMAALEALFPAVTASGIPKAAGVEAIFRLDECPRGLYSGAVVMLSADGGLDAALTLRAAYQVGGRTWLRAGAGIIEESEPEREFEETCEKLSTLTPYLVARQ
PV pol inh = poliovirus RdRp elongation inhibitors, primary screen, biochemical, fluorescence polarization, total intensity. Genome polyprotein (Poliovirus type 1 (strain Mahoney)), P03300. poliovirus polymerase elongation; active compounds read low. % elongation, % (compound at 16.7 µg/mL). actives 0.66% (n = 150,000). AID 588519, 2011; in the data active means % elongation below about 90%; further: some results filed as inactive read as strong as hits
PV pol inh intensity = second read-out of PV pol inh, no call of its own (marks repeat the call); % elongation; measured here: total intensity read-out; formula for this scale not given here;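 total fluorescence in place of polarization; lower means less elongation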
Numbers without * were called inactive; i = inactive; x = no result given; & = joins results of further samples.

cpd	Structure	MenB inh	MbtI inh	PV pol inh	PV pol inh intensity
1	CCn1c(=O)cc(OCC(=O)NCCCN2CCCC2=O)c2ccccc21	-7	0	98	99
2	CN(C)/C=C/C(=O)c1ccc2c(c1)CCO2	-24	2	105	96
3	O=C(Nc1ccccc1I)c1ccc(Br)o1	x	-3	102	105
4	C=CCC(c1ccncc1)/[N+]([O-])=C\c1ccccc1 (configuration not stated)	-7	28	100	101
5	Cc1ccnc(Nc2nc3ccccc3o2)n1	-1	-4	104	102
6	Cc1cc(C(=O)NC(C)(C)C)on1	-5	-5	101	100
7	CC(C)(C)OC(=O)N1CCc2[nH]ncc2C1	4	-4	104	103
8	CN(CC(=O)Nc1ccccc1SCC#N)c1ccccc1	-8	-7	47	245
9	NS(=O)(=O)c1ccc(-n2nncc2-c2ccccc2)cc1	-33	-8	101	96
10	O=C(CCSc1ccc(Br)cc1)Nc1ccc(F)cc1	x	-4	103	102
11	Cc1ccn2cc(CCNC(=O)C3CCCCC3)nc2c1	14	102	105	103
12	CCNS(=O)(=O)c1cccc(S(=O)(=O)c2ccc(Cl)cc2)c1	7	-8	101	103
13	COc1ccc(N(CN2C(=O)c3ccccc3C2=O)C(=O)c2ccccc2)cc1	-2	-6	100	103
14	COCCNC(=O)c1cc[n+]([O-])cc1	-15	16	101	105
15	CCCN1COc2ccc3c(-c4ccccc4)cc(=O)oc3c2C1	-19	20	104	104
16	Cc1cccc(OCc2nc(C#N)c(NCCc3ccccc3)o2)c1	-21	-6	103	105
17	c1coc(-c2nnc(-c3ccco3)nn2)c1	-63	13	43*	48*
18	CC(C(=O)Nc1ccc(C(N)=O)cc1)N(C)Cc1cccs1 (configuration not stated)	-4	-1	100	103
19	Cc1nc2ccccn2c1P(=S)(N1CCCCC1)N1CCCCC1	-29	-8	105	107
20	CN(Cc1ccccc1)C(=O)COC(=O)c1ccc(O)cc1	14	21	102	100

Further entries follow:
cpd	Structure	MenB inh	MbtI inh	PV pol inh	PV pol inh intensity
21	CN(C)c1ccc(/C=N/N2C(=O)CNC2=O)cc1	-20	x	104	110
22	COc1ccc(NC(=S)NC(C)(C)C)cc1	11	-5	100	105
23	O=C(CSc1nc(-c2ccccc2)nc2c1CCCC2)N/N=C/c1ccco1	0	-6	98	102
24	FC(F)(F)c1cccc(NC(=S)N2CCCCC2)c1	0	-3	100	100
25	N#Cc1cccc(OCC(=O)C23CC4CC(CC(C4)C2)C3)c1	-1	-11	103	96
26	CCCCCCc1c(O)nc(SCCN(CC)CC)n(-c2ccccc2)c1=O	7	9	100	101
27	CCc1cc(C(=O)OCC(=O)Nc2ccc(C)cc2C)c2ccccc2n1	x	-12	102	102
28	Clc1ccc(-c2nnc(CN(CCOc3cc(Cl)ccc3Cl)C3CC3)o2)cc1	-39	14	110	120
29	COc1ccc2nc(NC(=O)c3ccc(C)cc3)sc2c1	-20	133	100	108
30	CCN(Cn1ncn(C)c1=S)C1CCCCC1	-5	1	103	111
31	CC(NCc1ccc(Cl)cc1)=C(C#N)C#N	18	11	102	96
32	Cc1c(S(=O)(=O)c2ccc(Cl)cc2)csc1S(=O)(=O)N1CCCCC1	1	3	102	106
33	Cc1sc2nc(COC(=O)c3ccc(S(=O)(=O)NCc4ccco4)cc3)[nH]c(=O)c2c1C	-38	9	104	94
34	Cc1ccccc1CNC(=O)c1cc2cccc3c2n1CCO3	-10	-24	104	107
35	CC(C)NC(=S)N1CCN(c2ccc3nnc(-c4ccc(F)cc4)n3n2)CC1	-5	29	98	103
36	O=C(NCc1cccs1)c1nc2ncccn2n1	7	-6	100	103
37	O=C1Nc2ccccc2C12CC(c1ccc(F)cc1)=NC(=S)N2c1ccc(F)cc1 (configuration not stated)	-13	x	100	111
38	Cc1cccc(-n2c(-c3ccco3)nc3ccccc3c2=O)c1	-5	59*	104	103
39	O=C(Nc1ccc(S(=O)(=O)N2CCOCC2)cc1)c1cc2ccccc2o1	-11	4	105	103
40	CCC(C)NC(=O)c1nn2c(c1Cl)NC(c1ccc(OC)cc1)CC2C(F)(F)F (configuration not stated)	-15	5	103	104

The list continues.
cpd	Structure	MenB inh	MbtI inh	PV pol inh	PV pol inh intensity
41	CCOC(=O)c1cnc(SCC(=O)Nn2c(C)nc3sc(C)cc3c2=O)nc1N	6	3	102	98
42	COc1cccc(N2C(=O)Nc3ccccc3C2(O)C(=O)NC2CCCCCCC2)c1 (configuration not stated)	-12	2	100	100
43	CCCSc1nnc(-c2ccc(Cl)cc2)n1Cc1ccco1	-29	30	106	109
44	O=C(CN1C(=O)c2ccccc2S1(=O)=O)N1CCC(Cc2ccccc2)CC1	x	-4	102	102
45	CC1(C)Cc2cccc(OCC(=O)Nc3cccnc3)c2O1	-4	2	103	106
46	COc1ccc(CN(C)C(=O)Cc2c[nH]c3ccccc23)c(OC)c1OC	-11	0	102	105
47	Cn1c(SCC(=O)N2CC(=O)Nc3ccccc32)nnc1C(F)(F)F	-9	-2	106	100
48	CC(=O)NC(Cc1c[nH]c2ccccc12)C(=O)Nc1cccc(C#N)c1 (configuration not stated)	-12	-2	105	105
49	O=C(CCc1nnc2n(Cc3ccccc3)c(=O)c3ccccc3n12)NCc1ccccn1	-27	-8	103	103
50	Cc1cc(C)cc(-n2c(SCc3cn4ccsc4n3)nc3ccccc3c2=O)c1	-12	7	93	96
51	Cc1nnc2c(N3CC=C(c4ccccc4)CC3)nc3ccccc3n12	-18	108	99	102
52	O=S(=O)(c1ccccc1C(F)(F)F)N1C=CC(C(F)(F)F)=NCC1	-15	-6	104	106
53	O=C1CC(c2ccccc2)CC2=C1C(c1ccccc1)Nc1ccccc1N2 (configuration not stated)	-11	x	197	139
54	CCOc1ccc(CCNC(=O)CN2CCN(Cc3ccccc3F)C2=O)cc1OCC	3	-6	100	104
55	CC1Cc2ccccc2N1C(=O)/C=C/c1cccc(F)c1 (configuration not stated)	-5	14	98	97
56	Cc1ccccc1S(=O)(=O)Cc1ccc(C(=O)NC(C)c2ccccc2)o1 (configuration not stated)	-17	14	101	101
57	COc1ccc(C(=O)NCCNc2nc3c(C)cccc3cc2C#N)cc1OC	-35	27	105	113
58	CCCCC[C@H](O)CC[C@H]1[C@H](O)CC(=O)[C@@H]1CCCCCCC(=O)O	-4	-16	99&99	103&102
59	O=C(/C=C/c1ccccc1)Nc1ncnc2sc3c(c12)CCC3	-7	2	103	107
60	CC(=O)OCC(=O)c1ccc2ccn(C(C)=O)c2c1	-29	102	103	105

Continuation.
cpd	Structure	MenB inh	MbtI inh	PV pol inh	PV pol inh intensity
61	CCCC(=O)Nc1ccc2c(c1)ncn2CC	-4	-16	99	100
62	CSc1nc(=O)cc(N)n1-c1ccccc1	-14	6	104	106
63	CN(C(=O)c1cc(-c2ccc(Cl)c(Cl)c2)on1)c1ccccc1	-6	-15	101	107
64	CC(C)c1ncc(C(O)c2cccc3ccccc23)n1C (configuration not stated)	16	-16	104	103
65	O=c1c2c3c(sc2ncn1/N=C/c1cc(Br)ccc1O)CCCC3	-9	x	108	101
66	Cc1ccc(C(=O)N/C(=C\c2ccco2)C(=O)N(C)C)cc1	-12	13	99	100
67	CN(C)c1ccc(C(CNC(=O)c2ccccc2)N(C)C)cc1 (configuration not stated)	-1	-12	102	101
68	Oc1c(/C=N/n2cnnc2)sc2ccccc12	i	71*	100	101
69	COc1cccc(C2CC(=O)Nc3cc4c(cc32)OCO4)c1 (configuration not stated)	2	-2	102	101
70	Cc1ccc(C)c(NCC(=O)NC2CCCCC2)c1	8	9	99	91
71	O=C1CC(c2nc3ccccc3[nH]2)CN1c1ccc(F)cc1 (configuration not stated)	-17	-3	103	107
72	N#CCCNc1ccc2c(c1)OCCO2	9	8	98	101
73	CC(C)(C)c1ccc2c(c1)OCCOCCOCCO2	-10	x	107	108
74	O=C(Nc1nonc1-c1nc2ccccc2[nH]1)c1ccncc1	-2	-18	102	103
75	CC1CCCCN1c1ncnc2onc(-c3ccc(Cl)cc3)c12 (configuration not stated)	-13	19	102	104
76	O=C(O)C1C2C=CC(C2)C1C(=O)N1CCc2ccccc21 (configuration not stated)	-1	9	102	96
77	COc1ccc(C2Nc3cc(C(F)(F)F)c(S(N)(=O)=O)cc3S(=O)(=O)N2)cc1 (configuration not stated)	-17	49	100	105
78	N=C1S/C(=C\c2ccc(F)cc2)C(=O)N1c1nccs1	-43	7	105	103
79	Cc1ccc(NC(=O)/C=N/O)cc1	x	4	107	110
80	CC(c1n[nH]c(=S)n1-c1ccccc1)N(C)C (configuration not stated)	-11	23	102	103

Single records (already shown). Order of values: MenB inh | MbtI inh | PV pol inh | PV pol inh intensity
Cc1ccc(NC(=O)/C=N/O)cc1 is entered as x | 4 | 107 | 110
CN(C)c1ccc(C(CNC(=O)c2ccccc2)N(C)C)cc1 (configuration not stated) is entered as -1 | -12 | 102 | 101
O=C(O)C1C2C=CC(C2)C1C(=O)N1CCc2ccccc21 (configuration not stated) is entered as -1 | 9 | 102 | 96

Continuation.
cpd	Structure	MenB inh	MbtI inh	PV pol inh	PV pol inh intensity
81	CC1CCN(c2nc(Nc3ccccc3)c3cnn(C)c3n2)CC1	-9	75	103	101
82	CC(C)(C)OC(=O)N1CCC(C(=O)OCC(=O)Nc2ccc(F)cc2)CC1	-25	-11	110	99
83	O=C(c1cnn(-c2cccc(F)c2)c1-n1cccc1)N1CCCC1	-14	1	99	100
84	COc1ccccc1NC(=O)/C=C\c1ccco1	-5	57	104	106
85	O=C(O)C1CCCCC1C(=O)Nc1ccc(C(=O)N2CCCCC2)cc1 (configuration not stated)	-3	x	107	105
86	O=C(NCC1CC1)c1ccccc1NS(=O)(=O)c1cccc2nonc12	-13	16	100	100
87	CC(=O)Nc1ccc(NCC(=O)c2ccccc2)cc1	x	-4	100	105
88	C=CCN(C(=O)CSc1nc2c(sc3ccccc32)c(=O)n1Cc1cccnc1)c1ccccc1	-2	42	101	103
89	COc1ccc(CNC(=O)c2ccc(Br)o2)cc1	-14	18	99	100
90	CC1CCN(CNC(=O)c2cc3ccccc3o2)CC1	-9	x	101	103
91	CC1=C(CCC2(C)OCCO2)C(C)(C)CCC1	-20	0	99	103
92	COC(=O)NNc1ccccc1	-5	7	102	104
93	CC(O)CN(N)C1=NS(=O)(=O)c2ccccc21 (configuration not stated)	28	4	102	102
94	CC1=C(C#N)C(=O)NC(=O)/C1=C\c1ccc(-c2ccccc2)o1	-13	62&37	102	107
95	Clc1ccccc1CN1COc2cc3c(cc2C1)OCO3	11	5	100	102
96	CC1(C)CC2CC(C)(CN2C(=O)COC(=O)c2ccc3c(c2)S(=O)(=O)N=C2CCCCCN23)C1 (configuration not stated)	-18	-3	106	108
97	CCOc1ccc(NC2=NCCS2)cc1	x	-2	98	96
98	O=C(COC(=O)c1ccc(N2C(=O)c3ccccc3C2=O)cc1)c1ccccc1	-24	x	108	106
99	COc1ccc(-n2c(C)cc(C(=O)COC(=O)c3nccnc3N)c2C)cc1	-14	35	107	109

Compounds shown so far that contain an aryl methoxy group, in the order listed:
cpd	Structure	MenB inh	MbtI inh	PV pol inh	PV pol inh intensity
13	COc1ccc(N(CN2C(=O)c3ccccc3C2=O)C(=O)c2ccccc2)cc1	-2	-6	100	103
22	COc1ccc(NC(=S)NC(C)(C)C)cc1	11	-5	100	105
29	COc1ccc2nc(NC(=O)c3ccc(C)cc3)sc2c1	-20	133	100	108
40	CCC(C)NC(=O)c1nn2c(c1Cl)NC(c1ccc(OC)cc1)CC2C(F)(F)F (configuration not stated)	-15	5	103	104
42	COc1cccc(N2C(=O)Nc3ccccc3C2(O)C(=O)NC2CCCCCCC2)c1 (configuration not stated)	-12	2	100	100
46	COc1ccc(CN(C)C(=O)Cc2c[nH]c3ccccc23)c(OC)c1OC	-11	0	102	105
57	COc1ccc(C(=O)NCCNc2nc3c(C)cccc3cc2C#N)cc1OC	-35	27	105	113
69	COc1cccc(C2CC(=O)Nc3cc4c(cc32)OCO4)c1 (configuration not stated)	2	-2	102	101
77	COc1ccc(C2Nc3cc(C(F)(F)F)c(S(N)(=O)=O)cc3S(=O)(=O)N2)cc1 (configuration not stated)	-17	49	100	105
84	COc1ccccc1NC(=O)/C=C\c1ccco1	-5	57	104	106
89	COc1ccc(CNC(=O)c2ccc(Br)o2)cc1	-14	18	99	100
99	COc1ccc(-n2c(C)cc(C(=O)COC(=O)c3nccnc3N)c2C)cc1	-14	35	107	109

High-throughput results (PubChem BioAssay)
